# CtBP-E1A inh: CtBP/E1A binding inhibition; AlphaScreen GST-E1A/His-CtBP binding, 1536-well; hits give low values; control for the full effect not named in the record; activity change, % (concentration not given with the values); 340,000 compounds, 0.49% hits; AID 651724; in the data active means activity change below about -65%; inconclusive means about -30% to -65%; inactive means above about -30%; note: % is set by controls: 0 for no effect and ±100 for the full control effect
#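 GST-E1A and His-tagged CtBP (125 nM each as 5X stock) were preincubated with pin-transferred compound for 2 h at 37 °C in the dark, then glutathione donor and nickel acceptor beads were added for 1 h before AlphaScreen reading.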
# TRPML1 ag: human mucolipin-1 channel agonism. Q9GZU1. TRPML1-expressing cells, Ca2+ dye fluorescence, FDSS; host cell line not named in the record; reference of the full effect not given here. activation, % (test concentration not listed). 410,000 compounds, 0.12% hits. AID 624414; in the data active = activation above about 50%; inconclusive = about 30% to 50%; inactive = below about 30%; note: 0% is about no effect; the text of the record puts the active cut at 80%
# Target sequence (Q9GZU1 whole entry, looked up): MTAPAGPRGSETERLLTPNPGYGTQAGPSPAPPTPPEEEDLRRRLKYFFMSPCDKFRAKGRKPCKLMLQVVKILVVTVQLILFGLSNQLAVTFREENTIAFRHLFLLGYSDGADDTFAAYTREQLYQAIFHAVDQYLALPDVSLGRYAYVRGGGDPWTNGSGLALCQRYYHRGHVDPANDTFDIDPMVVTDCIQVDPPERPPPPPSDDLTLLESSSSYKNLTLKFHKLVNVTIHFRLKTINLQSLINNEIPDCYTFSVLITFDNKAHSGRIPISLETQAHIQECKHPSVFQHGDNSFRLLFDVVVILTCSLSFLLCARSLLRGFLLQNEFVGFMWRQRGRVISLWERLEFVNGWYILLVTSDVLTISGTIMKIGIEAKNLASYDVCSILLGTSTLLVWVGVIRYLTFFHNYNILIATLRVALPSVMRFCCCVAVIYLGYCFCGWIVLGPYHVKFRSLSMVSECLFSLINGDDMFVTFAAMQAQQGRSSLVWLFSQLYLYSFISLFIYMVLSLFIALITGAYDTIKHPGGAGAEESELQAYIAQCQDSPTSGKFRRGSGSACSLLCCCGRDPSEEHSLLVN
#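 Cells: TRPML1-DL, 1X Tet inducer, ~16 h at 37 degrees C/5% CO2. Dye: ABD Ca8 no-wash + quencher, 45-90 min RT. Read: 10 s baseline, compound add, 110 s agonist phase; 54-4 EC80 (4uM final), 110 s antagonist phase.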
# TRPML1 blocker: blocks the human TRPML1 channel. TRPML1-inducible cells, Ca2+ dye fluorescence, FDSS; hits give low values; inhibition of EC80 agonist-evoked calcium signal. 390,000 compounds, 0.02% hits. AID 624415. activity change, negative = inhibition, % (concentration not given with the values). Q9GZU1; in the data active means activity change below about -50%; inconclusive means about -30% to -50%; inactive means above about -30%;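 note: stimulus is agonist 54-4 at its EC80 concentration; % is set by controls: 0 for no effect and ±100 for the full control effect; the text of the record puts the active cut at -80%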
#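 Tet-induced TRPML1-DL cells loaded with Ca8 no-wash calcium dye were read kinetically on FDSS. Compound addition was followed by EC80 agonist 54-4 (4 uM final); inhibition was read over 110 s.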
# D2 potentiator: positive allosteric modulators of human D2 dopamine receptor | P14416 | DiscoveRx D2 beta-arrestin cells, luminescence, 90 min; 100% = 57 uM dopamine signal | potentiation, % (test concentration not listed) | 360,000 compounds, 0.23% hits; active = potentiation of 50% or more; inconclusive = 30% to 50%; inactive = 30% or less;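 note: compound concentration not given in the record; tested on top of an EC20 dose of dopamine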
# Target sequence (P14416 whole entry, looked up): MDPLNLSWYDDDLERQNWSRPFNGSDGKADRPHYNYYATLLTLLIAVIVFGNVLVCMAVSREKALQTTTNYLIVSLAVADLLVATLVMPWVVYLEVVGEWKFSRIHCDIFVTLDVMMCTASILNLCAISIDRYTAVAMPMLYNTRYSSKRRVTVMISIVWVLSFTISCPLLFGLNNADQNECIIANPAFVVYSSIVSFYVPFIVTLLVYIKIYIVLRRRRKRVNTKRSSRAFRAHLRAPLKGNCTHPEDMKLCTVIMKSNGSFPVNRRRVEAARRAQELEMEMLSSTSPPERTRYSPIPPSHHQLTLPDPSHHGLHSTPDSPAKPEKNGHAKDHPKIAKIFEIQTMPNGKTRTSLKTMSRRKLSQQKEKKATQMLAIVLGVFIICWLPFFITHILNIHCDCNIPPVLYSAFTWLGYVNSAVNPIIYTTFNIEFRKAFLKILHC
#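 PathHunter beta-arrestin assay in DiscoveRx D2 cells. Compounds were added with an EC20 of dopamine (50 nM final) for 90 min at 37 deg C. Luminescence was read 1 h after detection reagent, with 57 uM dopamine as the EC100 control.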
# Six1-Eya2 inh: Six1/Eya2 interaction inhibition; Q15475+O00167; AlphaScreen GST-Six1/His-Eya2 binding, biochemical; hits give low values; control for the full effect not named in the record; activity change, % (concentration not given with the values); 360,000 compounds, 0.56% hits; AID 651725; in the data active = activity change below about -65%; inconclusive = about -30% to -65%; inactive = above about -30%; note: % is set by controls: 0 for no effect and ±100 for the full control effect
#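 AlphaScreen luminescence read after one hour at 37 °C in darkness. Pin-transferred compounds met GST-Six1 and His-Eya2 protein (5X stock 250 nM/500 nM) plus glutathione donor and Ni-chelate acceptor beads (5X, 50 ug/mL).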
# TRPV1 PAM: potentiators of human vanilloid receptor 1 (TRPV1) | TRPV1-expressing cells, Fluo-8 calcium influx, capsaicin EC20 potentiation; host cell line not named in the record; control for the full effect not named in the record | potentiation, % at 8.33 µM | 320,000 compounds, 0.02% hits; active means potentiation above 80%; inconclusive means 30% to 80%; inactive means below 30%; note: 0% is about no effect
#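 Fluo-8 calcium influx in TRPV1-expressing cells, kinetic read (ex 480/em 520 nm). Compound added and read 3 min for agonist activity, followed by capsaicin at EC20 final and 2 min further read for enhancement.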
# Active calls of the source: *; ? = inconclusive; . = not tested or not shown; & = joins results of further samples. The order is random; about 0.95% have a hit in one of these screens.
SMILES,CtBP-E1A inh,TRPML1 ag,TRPML1 blocker,D2 potentiator,Six1-Eya2 inh,TRPV1 PAM
CC(Cl)C(=O)Nc1ccccc1C#N (stereo not given),13,0.8,4,-13,1,-6
CC(C)(C)N(Cc1cc2ccccc2[nH]c1=O)C(=O)c1cccc([N+](=O)[O-])c1,-9,-0.2,-23,-4,-1,3
c1ccc(-c2cc3c(NCC4COc5ccccc5O4)ncnc3s2)cc1 (stereo not given),0,0.6,-2,-3,-1,10
COc1ccc(NC(C)=O)cc1NC(C)C(=O)Nc1cc(C(F)(F)F)ccc1N1CCOCC1 (stereo not given),-22,-1.3,11,-10,-4,0
COc1ccc(NC(=O)C(C)SCc2ccccc2)cc1 (stereo not given),.,0.0,-3,-9,8,2
COc1ccc(Cl)cc1NC(=O)CNc1ccccc1F,3,1.8,-6,-16,18,2
CCN1CC2=C(OC(N)=C(C#N)C2c2ccccc2)/C(=C\c2ccccc2)C1 (stereo not given),0,2.1,4,-33,-13,-11
N#Cc1ccccc1NC(=O)Nc1ccc(Cl)cc1,-1,0.0,-10,-11,10,12
CC(C)(C)OC(=O)C1=CC[C@@H](c2ccc(Cl)c(Cl)c2)N(S(=O)(=O)c2ccc(F)cc2)[C@H]1c1cccc(F)c1,7,-0.2,-15,-2,0,.
CCOc1ccc(CN(CC)C(=O)Cc2c[nH]c3ccccc23)cc1OC,2,-0.3,6,-3,-8,-10
CCN(CC(=O)Nc1c(F)cccc1F)C(=O)C1Cc2ccccc2CN1S(=O)(=O)CC (stereo not given),6,-0.5,-4,6,6,-9
Cc1cccc(/C=C2\Sc3ccc(C(=O)NCC4CCCO4)cc3N(C)C2=O)c1 (stereo not given),-2,-0.6,-2,-3,6,14
O=C1[C@H](Cc2ccccc2)NCC=CC[C@@H](c2ccco2)N1Cc1ccccc1,-2,-0.8,-2,-14,-7,.
Cc1nc(-c2ccc(Cl)cc2)sc1C(=O)NNC(=O)C(C)C,5,-1.1,-6,-3,2,-15
O=C(NCc1ccc(Cl)cc1)N1CCOCC1,4,0.2,5,-3,3,-34
O=C(Nc1ccccc1Cl)O/N=C(/c1ccccc1)c1ccccn1,?,0.3,24,-8,?,.
COC(=O)c1cc([N+](=O)[O-])c(-n2ccnc2)c([N+](=O)[O-])c1,-9,0.4,-15,-14,-8,-3
Cc1ccc(S(=O)(=O)N(C)c2ccc(OC(=O)c3ccc(N4CCCC4=O)cc3)cc2)cc1,11,-0.4,-14,-13,13,12
COc1ccccc1N1CCN(Cc2cc(=O)oc3ccccc23)CC1,3,-0.6,.,-8,-1,.
COc1ccc(-c2nc(NC(=O)c3ccco3)sc2C)cc1,-22,0.2,-2,-3,-3,.

# The last 7 compounds of the section before are carried over, then new ones follow:
SMILES,CtBP-E1A inh,TRPML1 ag,TRPML1 blocker,D2 potentiator,Six1-Eya2 inh,TRPV1 PAM
Cc1nc(-c2ccc(Cl)cc2)sc1C(=O)NNC(=O)C(C)C,5,-1.1,-6,-3,2,-15
O=C(NCc1ccc(Cl)cc1)N1CCOCC1,4,0.2,5,-3,3,-34
O=C(Nc1ccccc1Cl)O/N=C(/c1ccccc1)c1ccccn1,?,0.3,24,-8,?,.
COC(=O)c1cc([N+](=O)[O-])c(-n2ccnc2)c([N+](=O)[O-])c1,-9,0.4,-15,-14,-8,-3
Cc1ccc(S(=O)(=O)N(C)c2ccc(OC(=O)c3ccc(N4CCCC4=O)cc3)cc2)cc1,11,-0.4,-14,-13,13,12
COc1ccccc1N1CCN(Cc2cc(=O)oc3ccccc23)CC1,3,-0.6,.,-8,-1,.
COc1ccc(-c2nc(NC(=O)c3ccco3)sc2C)cc1,-22,0.2,-2,-3,-3,.
Cc1nnc(-c2cccc(Br)c2)c2cn(-c3ccccc3Cl)nc12,-12,0.3,18,1,-9,-15
CCOC(=O)c1[nH]c(C)c(C(=O)OCCN2C(=O)c3ccccc3C2=O)c1C,6,2.3,13,6,2,4
CCc1ccc(NC(=O)Cc2ccc(-n3cccc3)cc2)cc1,-16,0.3,19,1,-5,10
O=C(NC1CCS(=O)(=O)C1)C1CCCN(S(=O)(=O)c2ccc(Cl)cc2)C1 (stereo not given),-11,0.1,11,-20,0,-2
Cc1ccc(N(CC(O)CN2CCCC2)S(=O)(=O)c2ccc(C)cc2)cc1 (stereo not given),-3,1.2,-4,-19,4,4
CC1(c2ccccc2)NC(=O)N(CC(=O)N2CCN(S(=O)(=O)c3c(F)cccc3F)CC2)C1=O (stereo not given),11,0.5,-17,-1,4,.
COc1cc(/C=N/n2c(-c3cc(C)[nH]n3)n[nH]c2=S)cc(OC)c1O,-5,0.1,-2,-5,1,7
O=C(Nc1ccc2nsnc2c1)C1CC1,-1,0.1,-7,-9,-4,-10
CCC(C)NC(=O)c1nn(C)c(=O)c2ccccc12 (stereo not given),24,0.0,-2,0,6,12
NC(=O)CSc1nnc(-c2ccc(S(=O)(=O)N3CCOCC3)cc2)n1CC1CCCO1 (stereo not given),9,0.0,-11,-3,3,-15
Oc1[nH]c2ccccc2c1N=Nc1cccc(Cl)c1,.,0.2,-28,-5,6,1
NNC(=O)c1ccncc1,5,0.4,-8,1,1,-15
COc1cc(/C=C(\C#N)C(=O)Nc2cccc(C(=O)O)c2)ccc1OCc1ccc(F)cc1,-70*,-0.3,-1,3,-14,17
COc1ccccc1CNC(=O)C(NS(=O)(=O)c1ccc2c(c1)OCCO2)C(C)C (stereo not given),1,0.3,-14,-18,-7,1
CCOC(=O)C1CCN(C(=O)c2sc3ncnc(N4CCC(C)CC4)c3c2C)CC1,-8,-0.1,2,0,-5,1
CC(OC(=O)C1CCN(S(=O)(=O)c2ccccc2)CC1)C(=O)Nc1ncc(Cl)cc1Cl (stereo not given),0,1.9,-13,18,1,?
O=C(c1cc(Br)c(Br)s1)N1CCOCC1,10,-0.4,5,-12,10,-18
Oc1ccc(/C=N/Nc2cccc3cccnc23)c(O)c1,7,0.3,-6,?,-24,-25
COc1cc(-c2nnc(SCC#CCO)o2)cc(OC)c1OC,6,-0.3,5,15,2,21
CC(=O)Nc1ccc(S(=O)(=O)C(C#N)c2nc3ccccc3nc2NCCCO)cc1 (stereo not given),-28,-0.2,10,-5,-28,-3
Cc1ccc2c(c1)N(C(=O)CCC(=O)N1CCN(c3cccc(C)c3C)CC1)CCO2,-9,1.3,2,-4,4,27
O=C(OCc1ccccc1)c1ccc2c(c1)-c1ccccc1C2=O,-19,4.3,16,-18,-19,-5
COc1ccc(NC(=S)NNC(=O)c2nnn(-c3ccccc3)c2C)cc1,7,0.3,14,-27,-78*,5
CCOc1ccccc1NC(=O)c1cc(CC(C)C)oc1C,23,0.4,11,-13,13,3
Cc1ccc(NC(=O)Cn2nc(C(=O)Nc3ccc(C)cc3)ccc2=O)cc1,.,0.7&1.2,4&33,-5,3,1
CCOC(=O)CSc1nnc(-c2ccco2)n1C,3,2.9,12,-7,1,-6
CCCC(c1nnnn1Cc1ccco1)N1CCC(C(N)=O)CC1 (stereo not given),-4,-0.2,-9,5,-3,5
O=C1CC(NS(=O)(=O)c2ccc([N+](=O)[O-])cc2)CN1c1cccc(F)c1 (stereo not given),-1,0.3,-6,22,-7,-11
CC(C)N(Cc1ccccc1)C(=S)NCc1ccccc1,-4,-0.2,-9,-16,4,-6
Cc1cccc(N(CC(=O)NCc2ccc3c(c2)OCO3)C(=O)CCC(=O)Nc2ccccn2)c1C,0,-0.6,-19,-13,-1,5
O=C(Nc1nc2c(F)cccc2s1)c1ccc([N+](=O)[O-])o1,-20,0.1,10,-6,2,-21
O=C(NC(=O)c1ccccc1)Nc1cccc(S(=O)(=O)N2CCCCC2)c1,.,.,.,3,5,-2
COc1cc(-c2ccc(N3C(c4ccsc4)=Cc4ccccc4C3CC(C)=O)cc2)cc(OC)c1OC (stereo not given),11,-0.5,.,.,12,.
COc1ccc(NC(=S)N2CCC(C(=O)c3ccc(F)cc3)CC2)cc1,.,0.6,-2,-48,11,.
O=C(COc1ccccc1)NNC(=O)COc1ccc([N+](=O)[O-])cc1,5,0.3,-24,-11,12,-1
COc1ccc(COC(=O)N/N=C(\C)CC(=O)Nc2ccc(Cl)cc2)cc1,10,0.4,2,10,3,25
CCOC(=O)[C@]12CCCC=C1N(Cc1ccco1)C(=O)[C@H](CC(=O)N1CCCC1)C2,-23,-0.5,.,.,17,.
O=C(O)COc1c(-c2ccc(Cl)cc2)oc2ccccc2c1=O,13,0.0,44,-7,4,-3
Cc1cc(=O)oc2cc(OCC(=O)N3CCOCC3)ccc12,8,-0.6,-3,-9,3,8
CC12C=CC(=O)C=C1CCC1C3CCC(O)(C(=O)CO)C3(C)CC3OC312 (stereo not given),-18,-0.5,-14,14,5,15

# Entries above printed as active in Six1-Eya2 inh:
Molecule	CtBP-E1A inh	TRPML1 blocker	D2 potentiator	Six1-Eya2 inh
COc1ccc(NC(=S)NNC(=O)c2nnn(-c3ccccc3)c2C)cc1	7	14	-27	-78*

# Next results.
SMILES,CtBP-E1A inh,TRPML1 ag,TRPML1 blocker,D2 potentiator,Six1-Eya2 inh,TRPV1 PAM
CCn1c(C(Cc2ccccc2)NC(=O)COC)nc2ccccc21 (stereo not given),-9,-0.3,-7,-9,4,-20
Cc1ccc(-c2nc3ccccc3[nH]2)cc1NC(=O)/C=C/c1ccco1,-12,1.7,-8,-6,-18,?
CCOC(=O)c1nc2sc3c(c2c(=O)[nH]1)CCC(C)C3 (stereo not given),3,.,.,-4,2,5
O=C(COC(=O)c1ccc([N+](=O)[O-])cc1Cl)Nc1cccnc1Cl,-2,3.1,-2,-67,-8,7
N#CCC(=O)NNc1c([N+](=O)[O-])cc(C(F)(F)F)cc1[N+](=O)[O-],-20,1.6,-20,-11,-20,2
COC(=O)c1ccc(NS(=O)(=O)c2ccc(-c3cc(C)no3)s2)cc1,1,-0.5,7,-3,-1,3
C[C@H]1CCC(=O)N([C@H](COc2ccccc2)Cc2ccccc2)CC1,7,1.5,24,-8,7,-17
O=C(CC1SC(=Nc2ccc(O)cc2)NC1=O)Nc1ccccc1 (stereo not given),-6,-0.5,?,2,-3,12
COc1ccc2oc(C(=O)OCC(=O)N3CCCCC3)c(C)c2c1,-1,0.6,-9,0,5,-3
COc1cc2c(cc1NC(=O)CSc1ccccc1)oc1ccccc12,13,-0.5,16,1,9,10
CC1CCN(C(=O)CSc2nnc(CN3CCOCC3)n2-c2ccccc2)CC1,11,-0.2,0,-8,0,10
CCOC(=O)Cc1c(C)nc2cc(C)nn2c1C,-2,0.0,6,0,2,-7
Cc1ccc2nc(-c3cccc(NS(C)(=O)=O)c3)cc(-c3ccccc3)c2c1,-21,3.7,-3,13,-10,1
O=C(NCc1ccncc1)C1CCN(S(=O)(=O)c2ccc(Cl)c(C(F)(F)F)c2)CC1,8,0.1,-11,-19,0,-32
CCCc1nc(SCC(=O)N2CCCc3ccccc32)c2c(=O)n(C)c(=O)n(C)c2n1,2,0.8,55,-6,-1,-12
Cc1ccc2ccc(C)[n+](CCCS(=O)(=O)[O-])c2c1,.,0.7,-13,-3,-1,0
c1cncc(CN=C2Nc3ccccc3CS2)c1,3,-0.5,11,-7,3,-4
